# Mtb H37Rv: Confirmatory growth inhibition assay against Mycobacterium tuberculosis H37Rv, potency (AID 1949) | most inactive calls were filed without a number and no value below 0 was filed | inhibition, % at 10 µg/mL, or IC50 in µg/mL where a hit was titrated | 100,000 tested, 1.6% active;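 active = confirmed in a dose series; inconclusive = about 50% or more but not retested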;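 also: bacteria grown 7 days with compound before Alamar blue readout; 0% = untreated bacteria and 100% = reference antibiotic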
# * = called active by the depositor; i = inactive; ? = inconclusive. Some of the compounds tested; count on the stated rates, not on these rows.
Compound	Mtb H37Rv
COC(=O)c1c(NC(=S)NC(=O)c2ccco2)sc2c1CCC2	i
COc1ccccc1CC(=O)Nc1ccccc1C	i
CS(=O)(=O)N(CC(=O)N1CCN(c2ccccc2)CC1)c1cccc(Cl)c1	i
COC(=O)C1CCN(C2CC(=O)N(c3ccc(F)cc3)C2=O)CC1 (stereo not given)	i
COc1cc(CNC(C)C23CC4CC(CC(C4)C2)C3)cc(Cl)c1OCC(N)=O (stereo not given)	i
COc1cc2c(cc1OC)CN(C(=O)CSc1nc3c(c(-c4cccs4)c1C#N)CN(C)CC3)CC2	i
CNC(=O)CN(c1ccc(C(C)C)cc1)S(C)(=O)=O	i
CCOc1ccc(NC(=O)CN(c2ccc3c4c(cccc24)CC3)S(C)(=O)=O)cc1	1%
O=C(NCc1ccc(N2CCCC2=O)cc1)c1ccc(F)cc1F	i
CCCCn1c(-c2ccc(OC)cc2)n[nH]c1=S	i
CC(=O)N1CCN(c2ccc(NCc3c(Cl)cccc3Cl)cc2)CC1	i
Cc1cc(C)c(C#N)c(Nc2ccc(Cl)c(Cl)c2)n1	i
COC(=O)C1=C(C)NC2=C(C(=O)CC(c3ccccc3Cl)C2)C1c1coc2ccccc2c1=O (stereo not given)	25%
CC1=C(C(=O)N(C)C)C(c2c(F)cccc2Cl)NC(=S)N1 (stereo not given)	0%
O=c1[nH]c(N/N=C\c2c(Cl)cccc2Cl)nnc1-c1ccccc1	1%

# Other structures:
Compound	Mtb H37Rv
C=CCNC(=O)c1ccc(N(Cc2ccc(C)cc2)S(C)(=O)=O)cc1	i
O=c1c2c3c(sc2ncn1/N=C/c1ccc(-c2cccc([N+](=O)[O-])c2)o1)CCCC3	i
CC(O)CNCc1c(Cl)cccc1Cl (stereo not given)	2%
CCc1c(C)nc(N2CCOCC2)[nH]c1=O	i
CC(O)CNC(=O)C(=O)Nc1cccc(Cl)c1Cl (stereo not given)	i
COc1ccc(F)cc1S(=O)(=O)NC1CCCCC1	i
O=C(Nc1ccc(-c2nnco2)cc1)c1ccccc1	i
CCN(CC)C(=O)CSc1nc2ccccc2c(=O)n1-c1ccc(Cl)cc1	i
C=CCn1c(COc2ccccc2)nnc1SCC(=O)Nc1cc(C(F)(F)F)ccc1Cl	26%
CCCC(=O)N(c1ccc(OC)cc1)c1nc(-c2ccc(OC)cc2)c(CCC)s1	i
Cc1cccc(C)c1NC(=O)CSc1nc2c(cc1C#N)CCC2	i
O=C1c2ccccc2C(=O)N1OS(=O)(=O)c1ccc2ccccc2c1	i
O=S(=O)(c1ccc(Cl)s1)N1CCCC1	i
CCOC(=O)c1ccc(NC(=S)Nc2ccccn2)cc1	i
CCc1ccc(C(=O)NC(=S)Nc2cccc(-c3nc4cc(C)ccc4o3)c2C)cc1	i

# Reprinted from the entries so far, 3 compounds:
Compound	Mtb H37Rv
O=S(=O)(c1ccc(Cl)s1)N1CCCC1	i
CCOC(=O)c1ccc(NC(=S)Nc2ccccn2)cc1	i
CCc1ccc(C(=O)NC(=S)Nc2cccc(-c3nc4cc(C)ccc4o3)c2C)cc1	i

# Continuation:
Compound	Mtb H37Rv
COC(=O)c1ccccc1NC(=O)Cn1nc(C(F)(F)F)c2c1CCCC2	i
COc1ccc(N2CCN(C(=S)Nc3ccc(Nc4ccccc4)cc3)CC2)cc1	i
O=C(CCc1ccccc1)Nc1ccc(C(=O)NCCc2ccccc2)cc1	i
CCC1(C)Cc2ccccc2-c2nc(SCC(=O)N3CCCCC3)n(Cc3ccccc3)c(=O)c21 (stereo not given)	9%
COC(=O)c1ccccc1NC(=O)CSC1=C(C#N)C(c2ccc(O)c(OC)c2)C(C(=O)Nc2ccccc2)=C(C)N1 (stereo not given)	i
COC(=O)c1cn(CC(=O)N2CCCCC2C)c2ccccc12 (stereo not given)	i
COc1ccc(-c2nc3ccccc3c(C(=O)NC(C)C)c2C)cc1	i
CCOc1cc(NC(=O)c2ccc(C(C)(C)C)cc2)c(OCC)cc1NC(=O)c1ccccc1	i
O=C(CN1C(=O)c2ccccc2C1=O)Nc1ccccc1C(=O)N1CCN(c2ccccc2)CC1	i
CC(=O)Nc1ccc(OC(=O)c2cn(-c3ccccc3)nc2-c2ccccc2)cc1	25%
COc1ccc(C(=O)N2CCN(Cc3ccccn3)CC2)cc1	0%
COc1ccccc1C(=O)NC(=S)Nc1ccc2nn(-c3ccc(C)c(Cl)c3)nc2c1	i
Cc1ccc(NC(=O)c2sc3nc(N)c(C#N)cc3c2N)c(Br)c1	i
COc1ccc(NC(=O)C2CCN(S(=O)(=O)c3ccc(OC)c(OC)c3)CC2)cc1OC	i
CS(=O)(=O)N(CC(=O)Nc1cccnc1)c1cccc(Cl)c1	i

# Further entries follow.
Compound	Mtb H37Rv
COc1ccc(S(=O)(=O)N(CC(=O)NCc2ccc(C)cc2)c2ccc(F)cc2)cc1OC	i
COc1cccc(C(=O)N2CCN(Cc3ccccn3)CC2)c1	4%
CCOc1ccc(CN2CCC(C(=O)NCc3ccco3)CC2)cc1	i
O=C(NCc1cccc(Oc2ccccc2)c1)c1cccc([N+](=O)[O-])c1	i
Cc1ccc(-c2cc(C(=O)NCc3ccccn3)c3ccccc3n2)s1	i
CC(Sc1ccccn1)C(=O)Nc1ccccc1 (stereo not given)	0%
CCOC(=O)c1c(CC(C)C)csc1NC(=O)c1cccc(N2C(=O)CCC2=O)c1	i
C=CCNc1sc(C(=O)c2ccc(Br)s2)c(N)c1C#N	3%
COc1ccc(CCNC(=O)c2c(-c3c(F)cccc3Cl)noc2C)cc1OC	i
COc1ccc(C(=O)NCCc2cccc(Cl)c2)cc1	i
COc1ccc(C2NC(=O)NC(C)=C2C(=O)Nc2cc(C)ccc2C)c(OC)c1 (stereo not given)	2%
CC1(C)NC(=O)N(CCOc2ccc(C(=O)c3ccccc3)cc2)C1=O	6%
O=C(Nc1ccccc1C(=O)NCc1cccnc1)c1ccc(Cl)cc1Cl	6%
CCOC(=O)c1cc(-c2ccccc2)sc1NC(=S)NCc1ccco1	i
O=C(Nc1ccc(F)c(Cl)c1)c1ccccc1N(Cc1ccccc1)S(=O)(=O)c1ccccc1	i

# Pulled by compound from the entries so far:
Compound	Mtb H37Rv
C=CCNc1sc(C(=O)c2ccc(Br)s2)c(N)c1C#N	3%
COc1ccc(C(=O)NCCc2cccc(Cl)c2)cc1	i

# Next section.
Compound	Mtb H37Rv
CCOC(=O)C(C)Oc1ccc(C2NC(=O)NC(C)=C2C(C)=O)cc1Br (stereo not given)	i
CC(C)c1ccc(N(CC(=O)O)S(C)(=O)=O)cc1	i
COc1ccc(/C=C2/C(=O)NC(=O)N(c3ccc(Cl)cc3)C2=O)c2ccccc12	i
CCc1cccc(C)c1NC(=O)CN(c1cccc([N+](=O)[O-])c1)S(=O)(=O)c1ccccc1	i
O=S(=O)(Nc1ccc(Br)cc1)c1ccc(NS(=O)(=O)c2cccs2)cc1	i
CCOC(=O)c1cccc(/C=C/c2ccc(OC)c(OC)c2)n1	i
O=C(Nc1ccc(I)cc1C(=O)NCCN1CCOCC1)c1cccnc1	2%
CC(C)c1ccc(NC(=O)CSc2nnc(COc3ccccc3Cl)n2C)cc1	i
Cc1cc(C)n(CC(O)COc2ccc(C(=O)c3ccc(Cl)cc3)cc2)n1 (stereo not given)	i
Cc1cc(C)cc(NS(=O)(=O)c2ccc(NC(=O)c3cccs3)cc2)c1	i
C=CCn1c(Cc2ccc(OC)cc2)n[nH]c1=S	i
C=CCNCCCOc1ccc(C)cc1Br	i
COc1ccc(-c2csc3ncn(Cc4ccccc4C)c(=O)c23)cc1	0%
Cc1ccc(-c2ccc(S(=O)(=O)N3CCN(C)CC3)cc2)cc1	i
C=C(C)CNC(=S)Nc1ccc(F)cc1	i

# More records:
Compound	Mtb H37Rv
CC(C)OC(=O)c1cccc(-c2ccc(C=O)o2)c1	?
O=C(Nc1ccccc1)Nc1ccc(C(=O)N2CCCCC2)cc1	3%
Nc1cc(N)nc(SCC(=O)Nc2ccc(Oc3ccccc3)cc2)n1	i
COc1ccc2oc(=O)c(C(=O)N3CCN(C)CC3)cc2c1	0%
CC12CN(C(=O)c3ccccc3Cl)CC(C)(CN(C(=O)c3ccccc3Cl)C1)C2	i
CCCCc1ccc(NC(=S)NCCc2ccc(F)cc2)cc1	?
CCC(C)c1ccc(NC(=S)Nc2c(C)nn(CC)c2C)cc1 (stereo not given)	3%
CC1(C)CC(NCc2ccccc2)CCO1 (stereo not given)	i
C=CCn1c(CNC(=O)c2ccc(Cl)cc2)nnc1SCC(=O)Nc1cccc(C(F)(F)F)c1	18%
COC(=O)C(C)Oc1ccc(C(=O)Nc2c(C(C)C)cccc2C(C)C)cc1 (stereo not given)	i
Cc1cccc(OC(=O)CCN2C(=O)C3C4C=CC(C5CC45)C3C2=O)c1C (stereo not given)	?
Cc1oc2c(c1C(=O)NCc1cc(C(=O)O)co1)CCCC2	i
CC(=O)c1cccc(NC(=O)c2ccccc2N(C)S(=O)(=O)c2ccc(C)cc2)c1	i
COc1ccc(CCNC(=S)NC2CCCc3ccccc32)cc1OC (stereo not given)	i
CSc1cccc(NC(=O)CN(c2ccc(Cl)cc2)S(C)(=O)=O)c1	i

# (listing goes on)
SMILES,Mtb H37Rv
COc1ccc(CCNC(=S)Nc2ccc(I)cc2)cc1OC,16%
CC(C)(C)NC(=O)c1ccc(COc2ccc(Cl)cc2Cl)o1,2%
Cc1ccc(C(=O)CC2(O)C(=O)N(CCc3ccccc3)c3ccccc32)s1 (stereo not given),i
O=C(O)Cn1c(-c2cccc([N+](=O)[O-])c2)nc(=S)c2c1CCCC2,i
CCC(CO)NCC#Cc1ccccc1 (stereo not given),i
O=C(CN(c1cccc([N+](=O)[O-])c1)S(=O)(=O)c1ccccc1)Nc1cccc(Cl)c1Cl,i
COc1ccc(C(=O)Oc2ccc(C=O)cc2)cc1,48%
COCCCN1C(=O)c2ccc(C(=O)Nc3ccc(-c4ccc([N+](=O)[O-])cc4)cc3)cc2C1=O,i

# (next part)
SMILES,Mtb H37Rv
O=C(CSc1ccccn1)Nc1ccc(Cl)cc1,i
O=C(Nc1ccc(-c2noc(-c3ccccc3F)n2)cc1)c1ccco1,0%
O=C(Nc1nccs1)c1cc(-c2cccnc2)nc2ccc(Br)cc12,i
O=C(CSc1ncc(-c2ccc([N+](=O)[O-])cc2)[nH]1)N1CCCCC1,3%
CCc1cccc(C)c1NC(=O)CSc1nnc(CNC(=O)c2ccc(Br)cc2)n1CC,i
Cc1ccc2oc(C(=O)NCc3ccc(S(N)(=O)=O)cc3)c(C)c2c1,i
O=C(NC1C2CC3CC(C2)CC1C3)c1cccc2ccccc12 (stereo not given),i
O=C(c1ccc(-c2ccccc2F)o1)N1CCOCC1,i

# New compounds follow.
SMILES,Mtb H37Rv
O=C(c1ccccc1)c1cccc(NC(=O)C2CC2)c1,i
COc1ccc(CNC(=O)c2ccc(CN3CCOCC3)cc2)cc1,i
CCOC(=O)c1sc(-c2ccc(OC)cc2)cc1N,i
CNC(=O)C12CCC(C)(c3nc4cc(Cl)c(Cl)cc4nc31)C2(C)C (stereo not given),i
Cc1cc(-c2nc3ccccc3s2)ccc1NC(=O)c1cccs1,12%
CC(C)c1ccc(OCC(=O)Nc2ncn[nH]2)c(Br)c1,i
CCSc1ccccc1C(=O)NCc1ccc(Cl)cc1,i
CCC(=O)Nc1ccc(C(=O)N2CCOCC2)cc1,i

# 4 entries from above, arranged by heavy-atom count, high to low.
SMILES,Mtb H37Rv
COc1ccc(CNC(=O)c2ccc(CN3CCOCC3)cc2)cc1,i
Cc1cc(-c2nc3ccccc3s2)ccc1NC(=O)c1cccs1,12%
CC(C)c1ccc(OCC(=O)Nc2ncn[nH]2)c(Br)c1,i
CCC(=O)Nc1ccc(C(=O)N2CCOCC2)cc1,i

# Given with each value named: 4 of the compounds above.
CC(=O)N1CCN(c2ccc(NCc3c(Cl)cccc3Cl)cc2)CC1
  Mtb H37Rv = i

Cc1cc(C)c(C#N)c(Nc2ccc(Cl)c(Cl)c2)n1
  Mtb H37Rv = i

COC(=O)C1=C(C)NC2=C(C(=O)CC(c3ccccc3Cl)C2)C1c1coc2ccccc2c1=O (stereo not given)
  Mtb H37Rv = 25%

CC1=C(C(=O)N(C)C)C(c2c(F)cccc2Cl)NC(=S)N1 (stereo not given)
  Mtb H37Rv = 0%

# Continued:
SMILES,Mtb H37Rv
CC(=O)Nc1ccccc1OCc1nnc(-c2ccccc2)o1,i
CN(C)c1cccc(C(=O)Nc2ccc(Cl)c(Cl)c2)c1,29%
Cc1cc(=O)oc2cc(Oc3ccc(C(F)(F)F)cc3[N+](=O)[O-])ccc12,i
C=CCn1c(/C=C/c2ccco2)nc2ccccc21,i
OC(Cc1ccncc1)C(Cl)(Cl)Cl (stereo not given),i
CCN(CC)C(=O)Cn1c(=O)n(C)c2ccccc21,i
N#Cc1c(C(F)(F)F)cc(-c2cccs2)nc1SCC(=O)Nc1ccccc1C(F)(F)F,i
O=C(NCc1ccccc1)c1ccccc1NS(=O)(=O)c1ccc(Br)s1,i

# Next records.
SMILES,Mtb H37Rv
Cc1nnc(SCC(=O)NCc2ccccc2)n1-c1ccccc1,i
COc1ccc(Cl)cc1NC(=O)c1cc(OC)c(OC)c(OC)c1,2%
COc1cc2ccccc2cc1C(=O)Nc1ccc(C(C)=O)cc1,i
COC(=O)c1sc(NC(=S)Nc2ccc(OCc3ccccc3)cc2)c(C(=O)OC)c1C,i
COc1ccc(-n2c3c(cc(C(N)=O)c2=O)C(=O)CCC3)cc1,i
O=C(O)CC(NCc1ccco1)C(=O)NCc1ccccc1 (stereo not given),i
CC12OC(=O)C3(CCCC3)C1(c1ccccc1)OC(=O)C21CCCC1 (stereo not given),i
O=C(O)c1cc(-c2ccc(Cl)cc2)n[nH]1,i

# Next section.
SMILES,Mtb H37Rv
CN(C(=S)NCc1ccccc1)C1CCCCC1,i
O=C(Cn1ncc2ccccc2c1=O)Nc1cccc(C(F)(F)F)c1,i
Cc1c(Cl)cccc1NC(=O)CCSc1ccc(Cl)cc1,0%
c1ccc(-c2cc(-c3nc(-c4ccccn4)no3)c3ccccc3n2)cc1,i
CNc1cc(N2CCN(C(=O)c3ccccc3C)CC2)ccc1[N+](=O)[O-],4%
COc1ccc(Cl)cc1C(=O)Nc1c(F)cccc1F,i
CCn1c(SCC(=O)Nc2ccccc2OC)nnc1-c1ccco1,i

# Compound activity from PubChem.
